Screening results (PubChem BioAssay)
BJeLR lethal = BJeLR cell viability loss. BJeLR (HRASV12) viability, CellTiter-Glo ATP luminescence, 48 h; reference of the scale not given here. inhibition, % (concentration not given with the values). 300,000 compounds, 0.17% hits;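 active means replicate mean above 50%; inconclusive means above 50% but judged a plate artefact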;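 further: 50 nL library stock added to about 25 µL; numbers are from one replicate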
Autofluor counter = counter-screen for toxin protease inhibitors: compound fluorescence; compound autofluorescence counterscreen, microsphere flow cytometry; hits give high values; fluorescence intensity (concentration not given with the values); 360,000 compounds, 3.1% hits; AID 624483;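 active means at least 3 SD above the mean of all compounds, about 16000 in these data; inconclusive means too few beads counted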;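 further: 100 nL of 1 mM stock went into each well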
ugtP null kill = growth inhibition of S. aureus ugtP deletion strain; S. aureus RN4220 ugtP deletion, OD600 growth, 16 h; some inactives read as strong as hits; growth inhibition, % (test concentration not listed); 330,000 compounds, 0.54% hits;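 active means z-score under -3 and OD600 up to 0.15 on both plates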;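 further: plate controls were untreated wells for no effect and antibiotic for full effect; wells of about 80 µL received 100 nL stock; the first replicate is given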
Sa RN4220 lethal = kills Staphylococcus aureus RN4220. S. aureus RN4220 growth, OD600, 16 h. inhibition, % (test concentration not listed). 330,000 compounds, 0.33% hits. AID 1259311;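 active means z-score of -3 or lower and OD600 up to 0.18 on both plates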;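 further: plate controls were untreated cells for no effect and reference antibiotic for full effect; stock transfer was 100 nL into about 80 µL; one replicate is shown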
PrP 5UTR inh = inhibition of PrP 5' UTR reporter expression; cell-based PrP 5' UTR mRNA reporter, plate reader; 340,000 compounds, 0.35% hits; inhibition, % (no concentration beside the values);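 active means every replicate at 50% or more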;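 further: 0 = median of the neutral control wells; tested in H4 reporter cells; numbers are from one replicate; inactives centre near -14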
Mtb hypoxia rep = reduces hypoxia-regulated biosensor signal in M. tuberculosis. 300,000 compounds, 0.1% hits. fluorescence inhibition, % (concentration not given with the values). M. tuberculosis hypoxia-regulated fluorescent reporter, fluorescence;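 active means 35 to 45% if threefold the growth effect, above 45% if 1.5-fold the growth effect; inactive means the rest, general growth blockers included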;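 further: wells of about 50 µL received 100 nL stock; 0% = vehicle wells and 100% = reference inhibitor wells; whole bacteria with a GFP reporter of the hypoxia response; strong numbers were not always called active; many hits fall short of the cut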
Mtb hypoxia rep growth = recorded beside Mtb hypoxia rep, whose call it bears; growth inhibition, %; measured here: M. tuberculosis growth (absorbance);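 0% = vehicle and 100% = reference antibiotic; read after six days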
* = called active by the depositor; ? = inconclusive; · = no result given; & = joins results of further samples.

no.	Structure	BJeLR lethal	Autofluor counter	ugtP null kill	Sa RN4220 lethal	PrP 5UTR inh	Mtb hypoxia rep	Mtb hypoxia rep growth
1	CCOC(=O)C1=C(Cc2ccc(OC)cc2)C(=O)c2ccccc2C1=O	·	15161	18	35	-37	8	1
2	Cn1ncc(C(N)=O)c1NC(=S)NC(=O)c1ccc(Br)o1	3	4791	6	1.2	-13	-10	4
3	CC1CC(C)CN(S(=O)(=O)c2ccc(C(=O)N3CC(C)OC(C)C3)cc2)C1 (configuration not stated)	-9	7215	0	5.2	-14	15	0
4	Cc1nn(Cc2ccccc2Cl)c(Cl)c1C(=O)NCCc1ccccc1	-5	2270	9	5.4	-80	12	2
5	CCOCCCNC(=O)CN1C(=O)/C(=C/c2ccccc2C)Sc2ccccc21	-2	2459	2	3.2	2	5	6
6	Cc1cccc(C)c1NC(=O)CCCCCC1NC(=O)NC1C (configuration not stated)	-7	1643	4	3.1	-17	9	4
7	Cc1ccc2nc(-c3cccc(NS(C)(=O)=O)c3)cc(-c3ccccc3)c2c1	-1	1999	94*	-3.9	-6	5	14
8	Oc1cc(NCc2ccc(F)cc2)cc2cccnc12	·	3849	-13	7.6	-25	4	15
9	Cc1ccc(NC(=O)C2CCCN(S(=O)(=O)c3cccc4nonc34)C2)cc1 (configuration not stated)	-4	3097	8	3.9	-8	4	7
10	COc1ccc(CCCC(=O)O)c(C)c1	-3	6389	-3	-4.9	-3	-2	0
11	CC(=O)Nc1ccc(S(=O)(=O)N2CN(c3ccc(C)cc3)c3nc4ccccc4nc32)cc1	1	6043	11	5.0	-12	10	8
12	COc1ccc(N2CC(C(=O)Nc3nc4ccc(F)cc4s3)CC2=O)c(OC)c1 (configuration not stated)	2	5722	-11	-0.5	-13	0	2
13	NC(=O)c1ccccc1N/C=C/C(=O)c1ccc(Cl)cc1Cl	-7	3251	·	·	-58	·	·
14	CCOC(=O)C1=C(CN2CC(C)CC(C)C2)NC(=O)NC1c1ccc2c(c1)OCO2 (configuration not stated)	1	4429	1	3.4	-35	4	3
15	CC(=O)Cc1nsc(NC(=O)c2ccc(-c3cccc(C(F)(F)F)c3)o2)n1	-5	4321	2	-1.4	-22	13	7
16	O=C(C=Cc1cccs1)N1CCC2(CC1)Oc1ccc(Cl)cc1C(=O)C21CC(c2ccccc2)=NO1 (configuration not stated)	·	·	-3	6.2	·	-1	6
17	Cc1cc(N2CCN(C(=O)c3ccco3)CC2)nc(-c2ccccc2)n1	2	4466	6	3.2	-5	9	2
18	Cc1cc(S(=O)(=O)NCc2cccnc2)ccc1-n1cnnn1	1	12988	0	5.1	-9	0	2
19	Cc1occc1-c1nnc(SCC(=O)N2CCCCC2)n1C	·	·	5	4.8	-16	5	-4
20	O=C1Nc2c(c(=O)[nH]c(=O)n2-c2ccccc2)C1(Nc1ncccn1)C(F)(F)F (configuration not stated)	10	4660	1	3.2	-5	·	·
21	Cc1cc(=O)oc2c(C)c(OC(C)C(=O)NCc3ccccn3)ccc12 (configuration not stated)	4	5915	-8	0.7	-6	0	10
22	CCOC1OC(C(=O)N2CCOCC2)=CC(c2cn(C(C)=O)c3ccccc23)C1CCCO (configuration not stated)	·	·	-1&-2	4.2&0.7	·	6&-6	6&9
23	COc1cccc(-c2ccc(C#N)c(SCC(=O)NCCc3cccc(Cl)c3)n2)c1	-9	10407	85*	4.8	-9	-3	3
24	Cc1cccc(C(=O)Nc2nnc(-c3ccc(C(C)(C)C)cc3)s2)c1	4	4617	3	1.0	-42	·	·
25	COc1ccc(N(CC(O)Cn2cnc3ccccc32)S(=O)(=O)c2ccc(C)cc2)cc1 (configuration not stated)	6	2479	1	4.6	-40	6	2
26	CCOC(=O)Cc1c(C)nc2cc(C)nn2c1C	2	4163	1	1.1	-10	·	·
27	C=CCOC(=O)C1C(=O)CC(C)(O)C(C(=O)OCC=C)C1c1ccc(OC)cc1 (configuration not stated)	2	2281	13	1.1	-18	·	·
28	O=C(O)c1ccc(CP(=O)(c2ccccc2)c2ccccc2)cc1	8	3593	7	0.8	-11	11	3
29	COc1ccc(-c2cnnc(NN=Cc3c(C)nn(-c4ccccc4)c3Cl)n2)cc1	·	·	-19	3.7	·	6	-1
30	C[N+]1(CCOc2ccc([N+](=O)[O-])cc2)CCOCC1	3	2604	0	6.7	-11	15	10
31	Cc1c(C2=CCN(S(=O)(=O)c3ccc(Cl)cc3)CC2)c2ccccc2n1C	-2	3421	1	3.0	-23	7	4
32	S=c1[nH]nc(-c2ccc(Br)cc2)n1-c1ccc2c(c1)OCCO2	-11	·	8	-0.6	-23	8	6
33	COc1ccc(C(=O)NC(=S)N2CCCc3ccccc32)cc1OC	11	1739	-6	1.9	-27	8	17
34	CCCCS(=O)(=O)Nc1ccc(C(=O)NCC2CCCO2)cc1 (configuration not stated)	-3	9925	1	6.1	-19	16	11
35	Cc1onc(-c2ccccc2Cl)c1C(=O)NCc1cccnc1	-31	13989	2	0.6	-6	6	0
36	COCCn1c(SCC(=O)Nc2cc(C)on2)nc2ccccc2c1=O	·	?	10	6.0	-3	3	2
37	COCCn1c(SCC(=O)Nc2ccc(OC)cc2OC)nc2ccccc2c1=O	9	3306	3	0.7	-18	2	-6
38	COc1ccccc1C1C(C(N)=O)=C(C)Nc2nc(-c3ccc(Cl)cc3)nn21 (configuration not stated)	-4	6365	5	10	-11	·	·
39	Cc1ccccc1NC(=O)CN1C(=O)CSc2ccccc21	-8	4498	9	1.8	-8	15	7
40	CCOC(=O)C1C(=O)OC(C)(C)C1C(C)C(=O)c1ccc(C)cc1C (configuration not stated)	-2	3226	·	·	-16	·	·
41	Cc1cc(=O)oc2c(C)c(OCC(=O)N3CCN(c4ccc(F)cc4)CC3)ccc12	0	5653	-4	3.0	-2	-2	-7
42	COc1ccc(S(=O)(=O)NCc2ccc3c(c2)OCO3)cc1C	7	10341	8	5.0	-60	3	1
43	Cc1cc(C)cc(C(=O)N(NC(=O)Nc2ccc(Cl)cc2)C(C)(C)C)c1	-3	2605	-18	-2.5	-9	4	-2
44	Cc1cc(N(CN2CCCC2=O)C(=O)c2ccc(F)cc2)no1	2	20214*	6	4.5	-23	10	1
45	Cc1cc(NCc2ccccc2)c2ccccc2n1	9	4307	-5	1.1	-6	8	8
46	Cc1ccc(C)c(S(=O)(=O)N2CCN(C(=O)Nc3ccccc3)CC2)c1	8	5723	8	4.0	-8	14	-1
47	O=C(O)Cn1nc2c3c(cccc3c1=O)-c1ccccc1-2	4	2614	8	2.0	14	4	-5
48	CCOC(=O)C1CCN(C(c2cccnc2)c2c(NC(=O)c3ccco3)sc(C)c2C)CC1 (configuration not stated)	11	6017	-12	5.5	-9	1	6
49	COc1cc(OC)cc(C(=O)N2CCN(C(=O)c3ccc(-c4ccccc4)cc3)CC2)c1	0	4061	2	8.0	0	13	7
50	O=S(=O)(Nc1ncccn1)c1ccc(NC(=S)N2CCN(c3cccc(C(F)(F)F)c3)CC2)cc1	5	?	1	1.8	-26	1	14
51	COc1ccc(-n2c(C)nc3cc(C(=O)N4CCC5(CC4)OCCO5)ccc32)cc1	-10	2120	2	-2.2	-15	·	·
52	C1CCN(c2nc3nonc3nc2N2CCCCC2)CC1	·	24347*	-3	5.7	-25	8	9
53	CCOC(=O)NC(=O)COC(=O)Cc1cc(OC)c(OC)c(OC)c1	11	4053	1	-1.1	-8	·	·
54	CN1CCN(C(=S)NC(=O)/C=C/c2cccc3ccccc23)CC1	-2	9236	4	7.3	-20	18	7
55	Cc1ccc(OC(C)C(=O)Nc2ccccc2C(=O)NCc2cccnc2)cc1C (configuration not stated)	-5	5933	-2	-2.9	-19	3	10
56	N#Cc1cc([N+](=O)[O-])ccc1Oc1cccc(C=NNC(=O)c2ccc(Cl)cc2)c1	·	·	-14	-3.6	·	2	8
57	CCN(C(=O)COC(=O)CCC(=O)c1cccs1)c1ccccc1	·	3122	15	8.2	-6	-9	-5
58	CCC(=O)NC(Nc1nc(C)cs1)(C(=O)OC)C(F)(F)F (configuration not stated)	-3	2038	3	1.1	-29	-8	-8
59	CC(=NNC(=O)C1COc2ccccc2O1)c1cc2ccccc2o1 (configuration not stated)	·	·	4	-2.5	·	5	4
60	O=C1NC(c2ccccc2)=NC1(Nc1ccccn1)C(F)(F)F (configuration not stated)	-3	2342	6	4.2	-5	-2	3

Next section
no.	Structure	BJeLR lethal	Autofluor counter	ugtP null kill	Sa RN4220 lethal	PrP 5UTR inh	Mtb hypoxia rep	Mtb hypoxia rep growth
61	CCN(CC#CCC(O)(c1ccccc1)c1ccccc1)C(C)C	5	1995	1	4.6	-16	6	10
62	Cc1c(-c2ccco2)[n+](=O)c2c(n1[O-])CCCCC2	13	4391	5	3.7	-20	11	11
63	Nc1ccccc1S(=O)(=O)NC1=NCCCCC1	8	1931	11	7.7	-9	13	2
64	O=C(O)c1ccc(NS(=O)(=O)c2ccc3c(c2)C(=O)c2ccccc2C3=O)cc1	-7	3425	12	19	3	4	4
65	CC(C)=CC(=O)Nc1nnc(C(C)C)s1	-2	3402	5	2.8	-86	5	7
66	CC(=O)Nc1cccc(NC(=O)C2CCN(C(=O)c3ccco3)CC2)c1	-3	4001	-2	-3.8	-16	6	-2
67	C=Cc1c(C)c2cc3[nH]c(cc4nc(cc5nc(cc1[nH]2)C(C)=C5CCC(=O)O)C(CCC(=O)O)=C4C)c(C)c3C=C	5	6983&5354	1	9.8	-13&3	·	·
68	COC(=O)Nc1c(-c2ccccc2)nc2ccc(C)cn12	-1	2743	-2	-1.1	-1	·	·
69	COc1cc(C=NNC(=O)NC2CCCCC2)cc(OC)c1O	·	·	0	3.2	·	7	2
70	COc1ccccc1OCCNC(=O)Nc1cc(F)c(F)cc1Cl	8	3656	-9	3.4	-1	16	4
71	Cc1cccc(-n2ccnc2SCC(=O)Nc2nnc(C)s2)c1	0	5008	7	-15	0	3	-4
72	O=C(c1cccc([N+](=O)[O-])c1)c1ccc2c(c1)OCCOCCOCCO2	1	6428	6	4.8	-27	-6	-12
73	O=c1c2oc3nc4c(cc3c2ncn1CCCc1ccccc1)CCCC4	2	6186	-6	4.7	-41	22	2
74	CCOC(=O)c1[nH]ncc1CN1CCc2ccc(NC(=O)C3CCCO3)cc2C1 (configuration not stated)	12	5808	·	·	-8	·	·
75	COc1ccc2c(c1)c(C(C)=O)c(C)n2-c1ccccc1OC	-6	3662	-4	1.8	-14	0	-5

Gathered by group: the entries above containing fluorine (ten)
no.	Structure	BJeLR lethal	Autofluor counter	ugtP null kill	Sa RN4220 lethal	PrP 5UTR inh	Mtb hypoxia rep	Mtb hypoxia rep growth
8	Oc1cc(NCc2ccc(F)cc2)cc2cccnc12	·	3849	-13	7.6	-25	4	15
12	COc1ccc(N2CC(C(=O)Nc3nc4ccc(F)cc4s3)CC2=O)c(OC)c1 (configuration not stated)	2	5722	-11	-0.5	-13	0	2
15	CC(=O)Cc1nsc(NC(=O)c2ccc(-c3cccc(C(F)(F)F)c3)o2)n1	-5	4321	2	-1.4	-22	13	7
20	O=C1Nc2c(c(=O)[nH]c(=O)n2-c2ccccc2)C1(Nc1ncccn1)C(F)(F)F (configuration not stated)	10	4660	1	3.2	-5	·	·
41	Cc1cc(=O)oc2c(C)c(OCC(=O)N3CCN(c4ccc(F)cc4)CC3)ccc12	0	5653	-4	3.0	-2	-2	-7
44	Cc1cc(N(CN2CCCC2=O)C(=O)c2ccc(F)cc2)no1	2	20214*	6	4.5	-23	10	1
50	O=S(=O)(Nc1ncccn1)c1ccc(NC(=S)N2CCN(c3cccc(C(F)(F)F)c3)CC2)cc1	5	?	1	1.8	-26	1	14
58	CCC(=O)NC(Nc1nc(C)cs1)(C(=O)OC)C(F)(F)F (configuration not stated)	-3	2038	3	1.1	-29	-8	-8
60	O=C1NC(c2ccccc2)=NC1(Nc1ccccn1)C(F)(F)F (configuration not stated)	-3	2342	6	4.2	-5	-2	3
70	COc1ccccc1OCCNC(=O)Nc1cc(F)c(F)cc1Cl	8	3656	-9	3.4	-1	16	4
